# Source: PubChem
# Arbovirus inh: arbovirus infection inhibition | arbovirus infection cell-based antiviral screen | inhibition, % at 10 µM | actives 0.37% (n = 200,000);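 active = inhibition from about 30%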;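 note: bluetongue infection of BSR cells; cell survival read as ATP light after 72 h; 0% = infected wells without compound and 100% = uninfected wells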
# Mtb growth: M. tuberculosis H37Rv growth inhibitors, H37Rv strain (AID 1626). M. tuberculosis H37Rv growth inhibition; higher % means a stronger effect. actives 0.95% (n = 220,000). inhibition, % at 10 µM, or IC50 in µM where a hit was titrated;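 active = confirmed in a dose series; inconclusive = inhibition above 80% but not taken into the dose series; inactive = below 80% or under 30% at every dose of the series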;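 note: bacteria incubated seven days before Alamar blue readout; 0% = bacteria only wells and 100% = bacteria with antibiotic wells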
# RecA splice inh: Mtb RecA intein splicing inhibition; P9WHJ3; cell-free RecA intein splicing, fluorescence; inhibition, %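 (about 9 µM by stock and volumes)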; actives 0.75% (n = 290,000); in the data active = inhibition above about 30%; inconclusive = no clear call, values can overlap the other calls;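 note: 0% = vehicle wells and 100% = reference inhibitor control wells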
# Target sequence (P9WHJ3 whole entry, looked up, canonical isoform): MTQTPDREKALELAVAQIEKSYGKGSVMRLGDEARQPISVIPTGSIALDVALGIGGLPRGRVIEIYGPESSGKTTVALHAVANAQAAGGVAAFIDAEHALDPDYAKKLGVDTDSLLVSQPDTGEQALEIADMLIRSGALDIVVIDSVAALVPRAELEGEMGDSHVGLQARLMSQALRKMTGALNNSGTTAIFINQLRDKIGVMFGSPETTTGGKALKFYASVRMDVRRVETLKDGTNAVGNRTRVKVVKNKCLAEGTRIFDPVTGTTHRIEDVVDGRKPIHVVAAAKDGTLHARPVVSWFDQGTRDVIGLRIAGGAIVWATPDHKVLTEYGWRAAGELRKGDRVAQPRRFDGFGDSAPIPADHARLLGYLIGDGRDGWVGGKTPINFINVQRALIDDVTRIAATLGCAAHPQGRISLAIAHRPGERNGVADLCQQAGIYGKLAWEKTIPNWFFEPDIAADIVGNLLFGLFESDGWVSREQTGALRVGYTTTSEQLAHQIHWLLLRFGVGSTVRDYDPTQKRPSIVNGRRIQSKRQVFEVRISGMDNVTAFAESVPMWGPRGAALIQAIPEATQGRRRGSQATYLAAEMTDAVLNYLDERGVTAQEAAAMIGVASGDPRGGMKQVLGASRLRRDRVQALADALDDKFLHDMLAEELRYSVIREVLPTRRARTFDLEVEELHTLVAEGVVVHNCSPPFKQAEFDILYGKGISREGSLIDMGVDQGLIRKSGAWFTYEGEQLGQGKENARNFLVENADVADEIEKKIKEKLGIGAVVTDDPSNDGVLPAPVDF
# YopH inh: inhibitors of Yersinia enterocolitica YopH tyrosine phosphatase; fluorescence Ex485/Em525; inhibition, %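 (about 10 µM by stock and volumes)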; actives 0.16% (n = 140,000);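 active = inhibition of 50% or more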;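 note: controls were vehicle for no effect and minimum signal wells for full effect; inactives centre near -20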
# Mtb betalactam: beta-lactam sensitization of Mtb H37Rv. actives 0.27% (n = 330,000). inhibition, % at 25 µM. M. tuberculosis H37Rv growth with meropenem, percent inhibition; hits of this screen are not shown here. AID 434955;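 active = about 74% or more and at least 40 points above the plate without the antibiotic, then above 30% in a dose series; inconclusive = first-round hits that could not be retested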;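 note: growth measured after seven days incubation then overnight dye step; 0% = bacteria only wells and 100% = bacteria with antibiotic; twin plates without the antibiotic show which effects depend on it; some results filed as inactive read as strong as hits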
# Arbovirus inh repeat: recorded beside Arbovirus inh, whose call it bears; inhibition, %; measured here: 10K subset replicate screen; many hits read low in the repeat;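 first of two repeat runs on a subset; 0% = infected and 100% = uninfected wells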
# * = called active by the depositor; ? = inconclusive; . = not tested or not shown.
SMILES,Arbovirus inh,Mtb growth,RecA splice inh,YopH inh,Mtb betalactam,others
CCOCCCNC(=O)C1CCN(S(=O)(=O)c2cc(Br)cc3c2N(C(=O)CC)CC3)CC1,.,.,-0.6,.,2.0,
COc1ccccc1C1CCN(C(=O)c2ccccc2)CC1,.,.,2.4,.,-4.5,
COc1ccc(S(=O)(=O)NC(C)C(=O)O)cc1 (configuration not stated),3.2,-6.7%,0.4,-26.5,9.2,
O=C(CSc1ccc2nnc(CCNC(=O)c3ccccc3)n2n1)NCc1ccccc1,.,.,0.5,.,-3.5,
COc1ccc(CNS(=O)(=O)c2ccccc2Br)cc1,.,-10.3%,0.6,.,-3.6,
CC1=C(C(=O)OCc2ccccc2)C(c2ccc3ccccc3c2)NC(=O)N1CCCC(=O)O (configuration not stated),.,.,6.1,.,-7.1,
Cc1ccccc1NC(=S)N(CCCN1CCOCC1)Cc1ccccn1,9.3,28.5%,2.9,-5.8,-1.5,
COC(=O)C1CCN(C(=O)C2CCC(=O)N(CCc3cccc(F)c3)C2)CC1 (configuration not stated),.,.,0.3,.,1.6,
C=CCNC(=O)C1CC(=O)N(c2ccc(OCc3ccccc3Cl)cc2)C1 (configuration not stated),.,.,0.3,.,0.2,
O=C(CCC1CCCN(C(=O)c2ccccc2Cl)C1)N1CCN(c2ccccn2)CC1 (configuration not stated),.,.,-0.5,.,-5.5,
Brc1ccc(-c2csc(NNC3=NCCCCC3)n2)cc1,-1.3,8.3%,4.6,-47.0,0.8,
CCOC(=O)C1(CCOc2ccccc2)CCN(Cc2cccc(OC)c2OC)CC1,.,.,4.5,.,5.7,
CCOc1ccc(C2c3c(oc4ccccc4c3=O)C(=O)N2CCCN2CCOCC2)cc1OCC (configuration not stated),7.0,7.2%,1.8,.,-2.6,Arbovirus inh repeat=1.5
CC(=O)Nc1ccc(NC(=O)CCCc2c[nH]c3ccccc23)cc1,-5.4,-2.2%,1.5,.,-0.5,
O=S(=O)(c1cc(Cl)ccc1Cl)n1cccn1,1.2,3.3%,2.2,.,-1.8,
CCOC(=O)N1CCC(NC(=O)c2ccc3c(c2)sc2nc(-c4ccccc4)cn23)CC1,-9.2,33.2%,.,-39.5,84.0,
CC1CC(C)CN(CCCNC(=O)c2ccc3c(c2)NC(=O)C(N2CCCCC2)S3)C1 (configuration not stated),-19.8,-7.9%,0.3,-15.5,-10.6,
O=c1[nH]c2sc3c(c2c2nncn12)CCCC3,11.6,-13.7%,-1.2,-17.7,-12.2,
COCc1cc(C)nc2sc3c(=O)oc(C)nc3c12,-1.0,.,6.8,-33.1,68.1,
COC(=O)CN(Cc1ccco1)S(=O)(=O)c1ccccc1,0.4,2.6%,1.9,-14.7,-5.4,
COC(=O)C1CCN(c2cc(=O)n(-c3ccc(OC)cc3)c(=O)[nH]2)CC1,-3.1,-3.4%,-1.7,-30.3,-1.5,
O=C(CCCc1nc2ccccc2s1)NCc1cccnc1,27.9,3.2%,-0.9,.,1.9,
COc1ccc(C(=O)OCn2nnc3ccccc3c2=O)cc1OC,5.8,1.2%,1.3,-23.9,5.0,
Oc1ccc(N=Cc2cc(Br)c(N3CCOCC3)o2)cc1,-2.6,-6.3%,-8.9,-4.1,-10.0,
Cc1cc(CN(C)C(=O)c2cc(COc3ccc4ncccc4c3)on2)on1,12.9,9.0%,2.0,.,-3.7,
Cc1ccc(NC(=O)CN(C)C(=O)COC(=O)C(C)(C)Oc2ccc(Cl)cc2)cc1,.,.,2.7,.,-5.8,
Cc1cc(NC(=O)c2ccc([N+](=O)[O-])cc2)no1,.,.,7.0,.,-4.5,
Cc1csc(NS(=O)(=O)c2ccc(Cl)cc2)n1,.,.,-1.3,.,9.9,
COc1cc(C(=O)OCCCN(C)C)cc(OC)c1OC,.,1.4%,0.6,.,35.6,
CCOc1ccc(CN(C)C(=O)CNC(=O)c2ccccc2)cc1,.,.,-0.9,.,2.3,
C=CCn1c(SCC(=O)Nc2c(C)n(C)n(-c3ccccc3)c2=O)nc2sc(C)c(-c3ccccc3)c2c1=O,-21.8,-8.3%,4.9,-14.7,5.5,
CSc1nsc(SC)c1NC(=O)Nc1ccccn1,-5.5,6.6%,0.1,2.9,-2.3,
N#CCc1ccc(NS(=O)(=O)c2cccs2)cc1,-0.2,4.2%,1.9,-40.5,-2.2,
Cc1ccc(C(=O)OCC(=O)NCCN2C(=O)CSC2=O)cc1,3.5,-4.1%,-2.3,-27.7,-1.6,
C=CCOC(=O)C1=C(C)OC(N)=C(C(=O)OCC)C12C(=O)N(CC(N)=O)c1ccccc12 (configuration not stated),-1.8,-1.7%,-2.7,-28.9,-0.4,
COc1ccccc1N1CCN(S(=O)(=O)c2c(C)[nH]c(C)c2C(=O)N2CCCC2)CC1,.,.,1.7,.,?,
O=C(c1cc(S(=O)(=O)Nc2ccccc2F)c(Cl)cc1Cl)N1CCN(CCO)CC1,4.3,-1.9%,-0.6,.,-3.8,
COc1ccc(C2/C=C\CN(C(=O)CC(C)C)CC(=O)N2Cc2ccc(F)cc2)cc1 (configuration not stated),.,-8.8%,2.8,.,.,
CC(C)N(CCNC(=O)c1oc(=O)c2ccccc2c1-c1ccccc1)Cc1ccco1,-3.8,-10.3%,-1.5,.,1.4,
CCn1c(CNC(=O)COc2ccc(C(C)C)cc2)nnc1SCC(=O)NC1CCCCC1C (configuration not stated),8.1,-2.6%,1.3,-9.6,1.6,
Cc1cn(C2CC3OCC3O2)c(=O)[nH]c1=O (configuration not stated),2.1,-8.4%,-3.4,4.9,-6.6,
CCc1nc2c(sc3nc4c(cc32)COC(C)(C)C4)c(=O)n1CCN(CC)CC,-1.4,3.8%,-0.5,.,6.7,
COC(=O)c1ccn(CC(=O)NC2CCCCC2)n1,.,.,1.0,.,3.4,
O=C(O)c1cc(-c2ccc(/C=N/Nc3ccc(Cl)cc3)o2)ccc1Cl,-31.0,?,-39.4,-31.3,98.2,
Cc1cccc(COc2ccc(/C=N/NC(=O)c3nnn(-c4nonc4N)c3COc3ccc(F)cc3)cc2)c1,.,-8.0%,-1.1,.,6.6,
NNC(=O)c1ccc(O)cc1O,-1.4,-3.6%,-0.7,-8.8,8.6,
COCCOc1cnn(-c2cc(Oc3ccc(C)cc3)ncn2)c(=O)c1Cl,5.6,-12.7%,-2.9,-21.1,-12.5,
Cc1ccc(Cl)cc1NC(=S)NCc1cccn1C,-8.2,3.1%,8.0,-20.0,-2.9,
CC(C)CCNC(=O)Cn1cc2c(n1)CCCCC2,2.1,-2.8%,0.1,-23.0,8.8,Arbovirus inh repeat=-1.6
Cc1nc2ccc([N+](=O)[O-])cc2c(=O)n1Cc1cccc(F)c1,.,.,0.1,.,-5.5,

# (listing goes on)
SMILES,Arbovirus inh,Mtb growth,RecA splice inh,YopH inh,Mtb betalactam,others
CCC(=O)Nc1nnc(S(=O)(=O)N(C)Cc2ccco2)s1,.,.,-0.4,.,1.5,
O=c1/c(=C\c2cccc(O)c2)sc2nc(-c3ccccc3)c(-c3ccccc3)n12,.,-15.5%,-12.7,.,2.1,
COc1ccccc1/C=C/C(=O)OC(C)CN1CCOCC1 (configuration not stated),-4.1,-0.9%,1.8,-37.3,-1.4,
COc1cc(/C=C(\C#N)C(=O)Nc2ccc(C(=O)O)cc2)ccc1OC(=O)c1cccc(F)c1,.,.,-1.3,.,7.2,
COCc1cc(=O)oc2cc(NC(=O)c3ccc(C(C)(C)C)cc3)ccc12,.,.,0.4,.,3.9,
CNCCCOc1ccc(C)cc1OC,-1.6,-6.7%,-3.2,.,-6.7,
O=C(CSc1ccsc1[N+](=O)[O-])NC1CCCC1,2.2,-0.2%,0.7,.,-1.1,
Cc1ccc(NC(=O)C(C)c2ccc([N+](=O)[O-])cc2)cc1Cl (configuration not stated),-21.8,12.0%,3.9,-48.5,5.9,
COc1cnc(-c2ccccn2)nc1Oc1cccc(Cl)c1,-13.8,?,4.4,-36.3,80.4,
Cn1cc(Br)c(C(=O)NC2C3CC4CC(C3)CC2C4)n1 (configuration not stated),-8.6,2.2%,2.9,13.2,-15.9,

# A section from the list above:
SMILES,Arbovirus inh,Mtb growth,RecA splice inh,YopH inh,Mtb betalactam,others
CCC(=O)Nc1nnc(S(=O)(=O)N(C)Cc2ccco2)s1,.,.,-0.4,.,1.5,
O=c1/c(=C\c2cccc(O)c2)sc2nc(-c3ccccc3)c(-c3ccccc3)n12,.,-15.5%,-12.7,.,2.1,

# Continued.
SMILES,Arbovirus inh,Mtb growth,RecA splice inh,YopH inh,Mtb betalactam,others
O=C(Cc1ccccc1)Nc1ccccc1N1CCN(c2ccccc2)CC1,-14.3,1.0%,-2.8,-6.0,2.0,
C/C(=C\c1ccco1)CN1CCC(N2CCC(C(=O)N3CCOCC3)CC2)CC1,-17.7,-4.1%,-1.1,.,-1.9,
Cc1cc(=O)n2[nH]c(SCc3ccccc3)nc2n1,1.3,-10.0%,-0.8,-39.2,-3.9,
O=C(O)c1cc2c(s1)CCCC2,-2.7,-10.2%,.,-3.6,-10.9,
CN(C)CCNc1oc(COc2cccc(Cl)c2)nc1C#N,-2.4,-9.9%,-1.0,-32.1,-15.8,
Cc1cc2nnc(SCC(=O)Nc3ccc(Cl)cc3)n2c(N)n1,.,.,-2.6,.,-6.9,
COc1cc(C2C(C#N)=C(N)Oc3n[nH]c(C)c32)cc2c1OCO2 (configuration not stated),-9.8,-6.9%,92.5*,-11.0,-8.5,
C#CCNC(=O)c1cc2sccc2n1C,3.7,6.7%,0.2,.,-10.2,
N#Cc1ccc(COC(=O)CSc2nnc(C3CCCCC3)n2N)cc1,6.0,-1.2%,-0.1,-30.4,-5.7,
N#Cc1ccccc1NC(=O)C(=O)NCCCN1CCCC1=O,.,.,0.2,.,-6.9,

# 4 entries drawn at random from those above:
SMILES,Arbovirus inh,Mtb growth,RecA splice inh,YopH inh,Mtb betalactam,others
COc1cc(C2C(C#N)=C(N)Oc3n[nH]c(C)c32)cc2c1OCO2 (configuration not stated),-9.8,-6.9%,92.5*,-11.0,-8.5,
C/C(=C\c1ccco1)CN1CCC(N2CCC(C(=O)N3CCOCC3)CC2)CC1,-17.7,-4.1%,-1.1,.,-1.9,
Cc1cc2nnc(SCC(=O)Nc3ccc(Cl)cc3)n2c(N)n1,.,.,-2.6,.,-6.9,
CN(C)CCNc1oc(COc2cccc(Cl)c2)nc1C#N,-2.4,-9.9%,-1.0,-32.1,-15.8,

# Remaining list, next part:
SMILES,Arbovirus inh,Mtb growth,RecA splice inh,YopH inh,Mtb betalactam,others
Cc1c(-c2ccccc2)nnn1-c1ccc(F)cc1F,.,.,-1.0,.,5.6,
Cc1ccc(N2CC(C(=O)Nc3nnc(SCCN4CCOCC4)s3)CC2=O)cc1 (configuration not stated),.,.,-0.3,.,4.1,
CCOC(=O)N1CCN(CCC(=O)c2ccc(OC)cc2)CC1,-12.1,46.4%,0.2,.,86.5,
Cc1cccn2c(=O)nc(SCC(=O)Nc3ccc4c(c3)OCO4)nc12,.,.,-1.2,.,2.8,
COc1ccc(/C=C/C(=O)C(C(N)=O)=C2SCCS2)cc1,15.2,2.8%,-2.0,-36.1,4.4,
CCOC(=O)CSc1nc2ccccc2n1CC(=O)NC(C)(C)C,2.8,-5.7%,-0.2,-15.7,-1.2,
Cc1sc2nc(CSc3ccccc3)nc(N3CCN(C)CC3)c2c1C,-20.5,0.2%,-8.1,-15.5,-3.5,

# An excerpt from above in order of length of the SMILES, smallest number first.
SMILES,Arbovirus inh,Mtb growth,RecA splice inh,YopH inh,Mtb betalactam,others
CCOC(=O)N1CCN(CCC(=O)c2ccc(OC)cc2)CC1,-12.1,46.4%,0.2,.,86.5,
COc1ccc(/C=C/C(=O)C(C(N)=O)=C2SCCS2)cc1,15.2,2.8%,-2.0,-36.1,4.4,
Cc1cccn2c(=O)nc(SCC(=O)Nc3ccc4c(c3)OCO4)nc12,.,.,-1.2,.,2.8,

# An excerpt; the hit share may differ from the screen's.
